Screening results deposited in PubChem BioAssay by ICCB-Longwood Screening Facility, Harvard Medical School.
Choline anaer gr: inhibitors of anaerobic choline-dependent gram-negative bacterial growth; hit rate 0.2% among 55,000; Gram-negative bacterium anaerobic choline minimal medium, absorbance growth; stronger effect = lower value; many inactives read as strong as hits in the columns shown; calls only;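 active = growth z-score on choline under -2 at 7 or 20 h with little or no fall on glycerol, limits in tiers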;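 also: stock transfer was 300 nL into about 50 µL; the organism is E. coli; final concentration not given here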
Choline anaer gr early: recorded beside Choline anaer gr, whose call it bears; z-score; measured here: choline growth z-score, timepoint 1;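 score of optical density at 7 h as mean of two plates; lower means less growth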
Active calls of the source: *; i = inactive; & = joins results of further samples. The list is partial; rates above refer to the full screens.

Choline anaer gr	Choline anaer gr early	Compound
i	0.26	O=C(NC1CCCCC1)C1CCCN(c2nc3ccc(Cl)cc3[nH]2)C1 (stereo unspecified)
i	0.84	CC(C)(C)c1ccc(C(=O)N2CCN(CC(=O)Nc3nnc(-c4ccccc4)s3)CC2)cc1
i	0.32	Cc1ccc(CNC(=O)C2CCN(C(=O)c3ccnc(-c4ccccc4)c3)CC2)cc1
i	0.42	Cc1nn(-c2ccc(-c3ccccc3)nn2)c(C)c1S(=O)(=O)N1CCCC1
i	-0.5	COc1ccc(C2Nc3c(C)cc(C)cc3[C@H]3OCCC[C@@H]23)cc1C (stereo partly specified)
i	-1.07	COc1ccc(-n2c(C)cc(CNS(=O)(=O)c3ccc4c(c3)CC(C)N4C(C)=O)c2C)cc1 (stereo unspecified)
i	0.52	COc1ccc(NC(=O)c2ccc(OC)c(OC)c2)cc1CN1CCn2c(nc3ccccc32)C1
i	-0.23	COc1ccc(NC(=O)c2nnc(C3CCN(C(=O)c4ccc(Cl)cc4)CC3)s2)cc1

Other compounds follow:
Choline anaer gr	Choline anaer gr early	Compound
i	-1.65	O=C(c1cc(C2CC2)[nH]n1)N1CCN(c2ccccc2)CC1
i	-0.86	Cc1nn(-c2cc(N3CCCC3)ncn2)c(C)c1CCC(=O)NCc1ccccc1
i	0.29	CCOc1ccc(Br)cc1S(=O)(=O)N1CCN(c2nc(C)cc(N3CCOCC3)n2)CC1
i	-0.07	CN(C)C(=O)c1ccc2c(c1)nc(CN1CCN(C(=O)c3ccc(C(C)(C)C)cc3)CC1)n2C
i	0.42	CC(=O)Nc1ccc(C(=O)N2CCN(C(=O)c3nsc4ccc(C)cc34)CC2)cc1
i	0.01	CCc1csc(C2CCCN(C(=O)C3CC3)C2)n1 (stereo unspecified)
i	-0.05	CCCCCCCCCCCCCCCCOC[C@H](COP(=O)([O-])OCC[N+](C)(C)C)OC
i	-1.75	Cc1oc(C2CCN(C(=O)NC3CCCCC3)CC2)nc1C(=O)N1CCOCC1

Exported with two lines to a compound: part of the list above.
Results follow in this order: Choline anaer gr | Choline anaer gr early
- COc1ccc(NC(=O)c2nnc(C3CCN(C(=O)c4ccc(Cl)cc4)CC3)s2)cc1
 : i | -0.23
- O=C(c1cc(C2CC2)[nH]n1)N1CCN(c2ccccc2)CC1
 : i | -1.65
- Cc1nn(-c2cc(N3CCCC3)ncn2)c(C)c1CCC(=O)NCc1ccccc1
 : i | -0.86

Carrying on:
Choline anaer gr	Choline anaer gr early	Compound
i	-1.05	O=C1CCS(=O)(=O)N1c1ccc(S(=O)(=O)N2CCCCC2)cc1
i	-0.21	Cc1cc(C)cc(N2C(=O)C(Cc3ccccc3)N=C2N2CCN(Cc3ccc4c(c3)OCO4)CC2)c1 (stereo unspecified)
i	1.69	c1ccc(-c2noc(-c3ccc(NCc4cccnc4)nn3)n2)cc1
i	0.63	COc1ccc(C2=Nc3ccccc3N(Cc3ccccc3Cl)C(=O)C2)cc1
i	-0.78	CCc1nc(C)cn1S(=O)(=O)c1ccccc1Cl
i	-0.17	O=C(NC1CCCC1)N1CCN(Cc2nc3cc(Cl)ccc3o2)CC1
i	-0.21	CC(C)c1cc(C2CCCN2Cc2cccc(F)c2)no1 (stereo unspecified)
i	0.97	COc1ccc2c(c1)c1ncn(Cc3nc(C4CC4)no3)c(=O)c1n2Cc1ccc(F)cc1

The list goes on.
Choline anaer gr	Choline anaer gr early	Compound
i	-1.04	CC(C)c1nnc(-c2cccs2)o1
i	-2.59	Cc1csc(-c2cc(S(=O)(=O)NCc3ccc(OC(C)C)cc3)c(C)s2)n1
i	0.5	CCOc1cccc(C2Nc3ccc(C)cc3[C@H]3OCCC[C@@H]23)c1OC (stereo partly specified)
i	-0.79	CCOc1ccc(-n2c(C)c(C)c3c2ncn2nc(C)nc32)cc1
i	0.81	O=C1COc2ccc(S(=O)(=O)N3CCC(C(=O)N4CCN(c5ccccc5)CC4)CC3)cc2N1
i	0.08	CS(=O)(=O)N1CCC(C(=O)N2CCCC2)Oc2ccccc21 (stereo unspecified)
i	1.09	Cc1oc2ncnc(N3CCCCC3)c2c1C(=O)Nc1ccc(F)cc1
i	0.91	COc1ccc(Cl)cc1NC(=O)C1CCN(c2ccc(S(=O)(=O)c3ccc(C)cc3)nn2)CC1

(more compounds)
Choline anaer gr	Choline anaer gr early	Compound
i	0.46	CN(C)c1cc(OC2CCN(C(=O)Cc3ccsc3)C2)ncn1 (stereo unspecified)
i	-1.26	O=c1cc(N2CCN(S(=O)(=O)c3cc(F)ccc3F)CC2)nc2sc(-c3ccccc3)nn12
i	-0.24	COc1cccc(OC)c1C(=O)Nc1cccc(-c2nc3cccnc3s2)c1
i	1.3	COc1ccc(OC)c(C(=O)CSc2ncc3c(n2)-c2ccccc2N(Cc2ccccc2)S3(=O)=O)c1
i	-1.64	Cc1ccc(C)c(S(=O)(=O)Nc2ccc3nc(N4CCN(C)CC4)cc(C(=O)O)c3c2)c1
i	0.28	O=C1CC(c2ccccc2Cl)CC2=C1C(c1ccc3c(c1)OCO3)Nc1ccccc1N2 (stereo unspecified)
i	-0.68	CC(C)Cc1nc(CNC(=O)CC2CCCC2)no1
i	-0.68	CC(C)(C)c1ccc(S(=O)(=O)Nc2noc3ccccc23)cc1

Going on with the list.
Choline anaer gr	Choline anaer gr early	Compound
i	-1.48	Fc1ccc(-c2ccc(CNCc3cccs3)o2)cc1
i	1.1	Cc1ccc2c(c1)NC(C1=NS(=O)(=O)c3ccc(C)cc3N1)=NS2(=O)=O
i	-0.67	O=C(Nc1ccc2c(c1)OCO2)C1CCCN(c2ccnc(-c3ccccc3)n2)C1 (stereo unspecified)
i	0.66	Cn1c(=O)c2sccc2n2c(CCCC(=O)NCCc3c[nH]c4ccccc34)nnc12
i	-0.27	CC(C)(C)c1ccc(S(=O)(=O)N2CCC(c3ccncc3)CC2)cc1
i	-1.8	Cc1cc(C2CCCN2S(=O)(=O)c2cccc(Cl)c2)on1 (stereo unspecified)
i	1.62	Clc1ccccc1-c1csc(Cc2nc(-c3ccc4c(c3)OCO4)no2)n1
i	0.35	Cc1ccc(-c2noc3c(=O)n(CCC(=O)Nc4ccccc4Br)cnc23)cc1

The list continues:
Choline anaer gr	Choline anaer gr early	Compound
i	-1.25	Cc1cc(-c2ccccc2)nc2cc(-c3nc(-c4ccc5c(c4)OCO5)no3)nn12
i	0.48	O=C1C(c2ccc(F)cc2)N(CC2COc3ccccc3O2)C(=O)CN1C1CCCCC1 (stereo unspecified)
i	-0.48	COc1cccc(NS(=O)(=O)c2c(C)nn(-c3ccc(-c4ccc(C)cc4)nn3)c2C)c1
i	-0.25	COc1ccc(CNc2nc3nc(CN4CCCC4)cc(=O)n3[nH]2)cc1
i	-0.1	Cc1ccc(NC(=O)CCCc2nc3cccnc3n2CCC(C)C)cc1
i	-2.09	Cc1ccc(C2CC(=O)Nc3n[nH]c(C)c32)c(C)c1 (stereo unspecified)
i	-0.61	c1ccc(CCc2nn3c(-c4cccnc4)nnc3s2)cc1
i	0.75	COc1cc2[nH]c(=O)n(CCCCCC(=O)NCCc3c[nH]c4ccccc34)c(=O)c2cc1OC

Exported with two lines to a compound: 6 of the compounds above
Results follow in this order: Choline anaer gr | Choline anaer gr early
CCc1nc(C)cn1S(=O)(=O)c1ccccc1Cl
  i | -0.78
O=C(NC1CCCC1)N1CCN(Cc2nc3cc(Cl)ccc3o2)CC1
  i | -0.17
CC(C)c1cc(C2CCCN2Cc2cccc(F)c2)no1 (stereo unspecified)
  i | -0.21
COc1ccc2c(c1)c1ncn(Cc3nc(C4CC4)no3)c(=O)c1n2Cc1ccc(F)cc1
  i | 0.97
CC(C)c1nnc(-c2cccs2)o1
  i | -1.04
Cc1csc(-c2cc(S(=O)(=O)NCc3ccc(OC(C)C)cc3)c(C)s2)n1
  i | -2.59

(continued)
Choline anaer gr	Choline anaer gr early	Compound
i	0.78	Cc1ccc2oc(-c3ccc(Cl)c(NC(=O)c4ccc5c(c4)OCCO5)c3)nc2c1
i	0.44	CC(C)C[C@H](NC(=O)[C@@H](COC(C)(C)C)NC(=O)[C@H](Cc1ccc(O)cc1)NC(=O)[C@H](CO)NC(=O)[C@H](Cc1c[nH]c2ccccc12)NC(=O)[C@H](Cc1cnc[nH]1)NC(=O)[C@@H]1CCC(=O)N1)C(=O)N[C@@H](CCCN=C(N)N)C(=O)N1CCC[C@H]1C(=O)NNC(N)=O
i	0.68	CNc1oc(-c2ccc(F)cc2)nc1S(=O)(=O)c1ccc(Cl)cc1
i	0.94	CCCCCCC[C@H](O)/C=C/[C@H]1[C@H](O)CC(=O)[C@@H]1C/C=C\CCCC(=O)O
i	-0.09	CCOC(=O)c1cc2n(n1)CC(C)(C(=O)NC1CCCC1)N(c1ccc(F)cc1F)C2=O (stereo unspecified)
i	0.5	OCCNc1nc(Nc2ccccc2)c2cnn(-c3ccccc3)c2n1
i	-0.3	O=C(NCc1ccc2c(c1)OCO2)C1CCCN(c2ncc(-c3ccccc3)cn2)C1 (stereo unspecified)
i	-0.52	Cc1ccc2nc(C(=O)O)cc(Nc3ccc(C)c(Cl)c3)c2c1

The results go on.
Choline anaer gr	Choline anaer gr early	Compound
i	-0.04	Cc1nc2ccccc2n(CC(=O)Nc2ccc(F)cc2F)c1=O
i	0.23	CN(CCN1C(=O)c2cc3occc3n2CC1(C)C(=O)NC1CCCCC1)C1CCCCC1 (stereo unspecified)
i	0.9	Cc1ccc(NC(=O)CSCc2cc(=O)n3ccccc3n2)cc1
i	-0.24	CCn1c(CN(c2ccc(F)cc2)S(C)(=O)=O)nnc1SCC(=O)c1cc(C)n(C)c1C
i	0.98	CCOC(=O)c1c(NC(=O)CSc2nnc3[nH]c(=O)cc(C)n23)sc2c1CCCCC2
i	0.91	CC1CCN(S(=O)(=O)c2ccc3nn(CCOc4ccccc4)c(=O)n3c2)CC1
i	0.91	CCn1ccc2cc(S(=O)(=O)N3CCC(C(=O)N4CCN(c5ccccc5)CC4)CC3)ccc21
i	-0.61	COc1cc(C)c(Cl)cc1S(=O)(=O)Nc1ccc(Nc2cc(N(C)C)nc(C)n2)cc1

More entries follow:
Choline anaer gr	Choline anaer gr early	Compound
i	-1	Cc1c(NS(=O)(=O)c2ccc(Cl)s2)c(-n2cnnc2)nn1C
i	1.35	CC(C)CCNC(=O)C1CCN(C(=O)c2nn(C)c3c2CN(C(=O)C(C)C)CC3)CC1
i	0.04	Cc1c(CN(C)C(=O)c2cnn3c(C(F)F)cc(-c4ccccc4)nc23)cnn1C
i	0.42&0.22&0.21	CC(=O)Oc1ccc(C(c2ccc(OC(C)=O)cc2)c2ccccn2)cc1
i	1.35	COc1ccc(CNC(=O)CCS(=O)(=O)c2ccc3c(c2)CC(C)N3C(=O)C2CC2)cc1 (stereo unspecified)
i	-0.91	Cc1onc(-c2cccnc2)c1C(=O)Nc1ccccc1C(=O)c1ccccc1
i	-0.29	COc1ccccc1N1CCN(c2ccc(=O)n(CC(=O)NC3CCCC3)n2)CC1
i	0.23	O=c1ccn(-c2ccc(Cl)cc2)nc1-c1nc(-c2ccc(F)c(Br)c2)no1

A few values from the list.
O=c1ccn(-c2ccc(Cl)cc2)nc1-c1nc(-c2ccc(F)c(Br)c2)no1 in Choline anaer gr early reads 0.23
CC(C)CCNC(=O)C1CCN(C(=O)c2nn(C)c3c2CN(C(=O)C(C)C)CC3)CC1 in Choline anaer gr early reads 1.35

Further records:
Choline anaer gr	Choline anaer gr early	Compound
i	-1.67	O=S(=O)(c1ccc(F)cc1)N1CCCC1
i	-0.89	Cc1cccc(N2C(=O)CN(CCc3ccc(S(N)(=O)=O)cc3)[C@H]3CS(=O)(=O)C[C@H]32)c1
i	0.83	COc1ccc(OC)c(Nc2nc(Nc3ccccc3)c3cnn(C)c3n2)c1
i	0.66	Cc1sc(-c2cc(C(F)(F)F)[nH]n2)cc1S(=O)(=O)N1CCN(C2CCCCC2)CC1
i	0.44	c1ccc(CNc2nc(-c3ccncc3)nc3c2CCC3)nc1
i	0.6	COc1ccc(C2=NN(c3nc(C)cs3)C(c3ccc(OC)c(OC)c3)C2)cc1 (stereo unspecified)
i	0.05	Cc1noc(C)c1C1CCCN1S(=O)(=O)c1c(C)noc1C (stereo unspecified)
i	0.03	CCCCc1ccc(NS(=O)(=O)c2ccc(N3CCCCS3(=O)=O)cc2)cc1

The list continues.
Choline anaer gr	Choline anaer gr early	Compound
i	0.37	O=C(c1ccc(Cl)cc1)N1CCN(c2cc(=O)n3nc(-c4ccccc4)sc3n2)CC1
i	0.17	CCOc1ccc2c(c1)C(OC(=O)c1cc3c(C)nn(-c4ccccc4)c3s1)CC(C)(C)O2 (stereo unspecified)
i	-0.42	O=C(c1cc2nc(C3CC3)cc(C(F)F)n2n1)N1CCCC1c1cccc(F)c1 (stereo unspecified)
i	-1.08	CC(C)(C)NCc1ccc(-c2ccccc2F)o1
i	0.69	COc1ccccc1C(=O)Nc1ccc2[nH]c(=O)oc2c1
i	0.46	CCCCC/C=C\C\C=C/C=C/C=C/[C@@H](SC[C@H](N)C(=O)O)[C@@H](O)CCCC(=O)O
i	0.35	COc1cccc(CNC2=NCCCNC23CCCCC3)c1
i	-0.65	O=C(COc1ccc(-c2nc(-c3ccccc3)no2)cc1)Nc1ccccc1F

Additional records:
Choline anaer gr	Choline anaer gr early	Compound
i	0.15	O=C(Nc1ccc2c(c1)OCCO2)N1CCN(Cc2nc3cc(Cl)ccc3o2)CC1
i	0.65	Cn1c(CN(c2ccc(F)cc2)S(C)(=O)=O)nnc1SCC(=O)Nc1ccc2c(c1)OCO2
i	0.03	CCCCNC(=O)c1cc(C)nc2c1c(=O)n(C)c(=O)n2C
i	0.39	Cc1cccc(Cn2cccc2CNS(=O)(=O)Cc2ccccc2)c1
i	-0.12	CCOC(=O)c1cnn(-c2ccc(C(=O)O)cn2)c1N
i	-1.82	CCC(CC)C(=O)Nc1nc(C)ns1
i	-0.57&0.39	CCC(=O)O[C@]1(C(=O)CCl)[C@@H](C)C[C@H]2[C@@H]3CCC4=CC(=O)C=C[C@]4(C)[C@@]3(F)[C@@H](O)C[C@@]21C
i	0.27	CCCC12CN3CC(CCC)(CN(C1)C3c1c(C)[nH]c(=O)[nH]c1=O)C2=O (stereo unspecified)
